Biofilm kill mix = mixture kills Candida albicans biofilm cells; AID 1242; inhibition, % at 7.6 µM; C. albicans biofilm persisters + clotrimazole, fluorescence viability; primary screen in compound mixtures of four per well; 120,000 tested, 0.02% active;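 active = inhibition above 30.3% in the primary screen of four-compound pools, then above 30% when the compound was retested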;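 also: compounds exposed to preformed 24 h biofilms for 48 h; the number belongs to the whole pool; some results filed as inactive read as strong as hits; inactives centre near 12; 0% = biofilm with clotrimazole alone and 100% = kill control; retested singly at about 60 µM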
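Probe or stimulus – Clotrimazole 50 µg/mL co-treatment · System – C. albicans biofilms · Schedule – 24 h biofilm formation, then 48 h compound exposure, 37 °C · Evaluation – percent inhibition of biofilm viability · Technique – 2-h Alamar Blue fluorescence, 535/590 nm excitation/emission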
The depositor's hits bear a star. The list is partial, so the mix of outcomes need not match the whole.

SMILES	Biofilm kill mix
COc1ccc(NC(=S)NC(NC(=O)c2cccc(C)c2)C(Cl)(Cl)Cl)c([N+](=O)[O-])c1 (centres undefined)	6.8
CC(C)CNC(CC(=O)Nc1cccc([N+](=O)[O-])c1)C(=O)O (centres undefined)	20.9
Cc1cc(Nc2c(C)n(C)n(-c3ccccc3)c2=O)n2c(nc3cc(F)c(F)cc32)c1C#N	15.6
CN(Cc1ccncn1)C(=O)CC1C(=O)NCCN1Cc1cccc(Oc2ccccc2)c1 (centres undefined)	3.9
NC(=O)c1ccc(NC(=O)c2cnc3ccccc3n2)cc1	11.4
Nc1nccc(/C=C/c2ccc(Cl)cc2)n1	15.9
Cc1ccc(-c2cc(=O)c3ccccc3[nH]2)cc1	16.5
Cc1ccc(NC(=O)/C=C/c2cccc([N+](=O)[O-])c2)nc1	3.8
Cc1cccc(NCC(=O)NNC(=S)Nc2ccccc2)c1	10.0
Oc1ccc(/C=N/Nc2cc(N3CCCC3)nc(N3CCCC3)n2)cc1O	13.4
Cc1cc(C(=O)OCC(=O)Nc2cc(S(=O)(=O)N(C)C)ccc2Cl)c2ccccc2n1	5.9
Cc1cc(NC(=O)CSc2nnc(Nc3ccccc3C)s2)no1	34.7
O=C(NC(=S)N1CCN(Cc2ccccc2)CC1)c1cccnc1	28.5
O=c1[nH]c2ccccc2c(O)c1SCCO	7.7
COc1ccc(C2CC(c3ccccc3)=NN2C(=O)COC(=O)C2(C)CC2(Cl)Cl)cc1 (centres undefined)	-1.3
COC(=O)C(O)(CC(=O)Nc1ccc(Cl)cc1Cl)C(F)(F)F (centres undefined)	4.4
COC(=O)C1=NNC2C(=O)N(C3CCCCC3)C(=O)C12 (centres undefined)	13.1
O=C(NCc1ccc(Cl)cc1)c1csc(-c2cccnc2)n1	32.9
CC(C)CC(=O)NC(=S)Nc1ccc(N2CCOCC2)cc1	11.8
C/C(NCCN1CCOCC1)=C(\C#N)C(N)=O	17.3

Continued, overlapping the part above by 4 compounds.
SMILES	Biofilm kill mix
COC(=O)C1=NNC2C(=O)N(C3CCCCC3)C(=O)C12 (centres undefined)	13.1
O=C(NCc1ccc(Cl)cc1)c1csc(-c2cccnc2)n1	32.9
CC(C)CC(=O)NC(=S)Nc1ccc(N2CCOCC2)cc1	11.8
C/C(NCCN1CCOCC1)=C(\C#N)C(N)=O	17.3
CC(C)(C)C(=O)Nc1sc2c(c1C#N)CCCCC2	15.7
CC1(C)C(=O)Nc2ccccc2N1C(=O)COc1cccnc1[N+](=O)[O-]	-6.8
Cc1c(C(=O)NC2CC2)oc2ccc(S(=O)(=O)N3CCCCCC3)cc12	-7.2
FC(F)Sc1ccc(-n2cc(-c3ccc(Cl)cc3)[n+]3c2CCC3)cc1	23.2
CC(CO)(CO)NC(=O)c1ccc(=O)[nH]n1	20.4
O=C(Nc1ccc2c(c1)OCCO2)N1CCN(Cc2ccccc2)CC1	28.8
Fc1ccc(CSc2ccc(-c3ccc4c(c3)OCO4)nn2)cc1	1.3
CC(=O)NCCCC(=O)NNC1CC(=O)N(c2cccc(Cl)c2)C1=O (centres undefined)	-17.6
CC(Oc1ccccc1)C(=O)NNC(=O)c1ccccn1 (centres undefined)	-8.7
C(=C\c1ccc(/C=C/c2ccccc2)nn1)/c1ccccc1	11.3

Some of the entries so far, as a markdown table.
| Molecule | Biofilm kill mix |
| --- | --- |
| Fc1ccc(CSc2ccc(-c3ccc4c(c3)OCO4)nn2)cc1 | 1.3 |
| CC(=O)NCCCC(=O)NNC1CC(=O)N(c2cccc(Cl)c2)C1=O (centres undefined) | -17.6 |

Remaining list, next part
SMILES	Biofilm kill mix
C/C(=N\NC(=O)c1ccc2nc[nH]c2c1)c1ccc([N+](=O)[O-])cc1	23.1
CC(CC(=O)O)CC(=O)Nc1ccc(Br)cc1 (centres undefined)	19.3
CC(C)=CCN1CCN(CCC2=C(C)CCCC2(C)C)CC1CCO (centres undefined)	11.9
CCc1ccc(C(CNC(=O)c2ccc3c(=O)n(-c4ccccc4F)c(=S)[nH]c3c2)N(C)C)cc1 (centres undefined)	4.4
O=C(N/N=C/C(Br)=C\c1ccccc1)c1ccc2nc[nH]c2c1	21.2
O=C(OCC(=O)N1CCCC1)c1cc(Br)ccc1Cl	11.1
CCOC(=O)c1[nH]c(C)c(C(=O)N2CCc3c([nH]c4ccccc34)C2c2ccccn2)c1C (centres undefined)	11.6
COC(=O)c1c(C)nn(-c2ccc(OC(F)(F)F)cc2)c1-c1snnc1C	14.6
COc1ccc(-n2c(SC(C)C(=O)Nc3ncc(Cl)cc3Cl)nc3ccccc32)cc1 (centres undefined)	6.1
CCOC(=O)CN(C(=O)CNC(=O)c1cccs1)C(C(=O)NC1CCCCC1)c1cccs1 (centres undefined)	15.7
CC(C)c1ccc(/C=C2\SC(N3CCOCC3)=NC2=O)cc1	13.1
O=C(Nc1nc(-c2ccccn2)cs1)c1ccc([N+](=O)[O-])o1	29.1
O=C(CC1C(=O)NCCN1Cc1ccc(F)cc1)NCCN1CCCc2ccccc21 (centres undefined)	9.2
CCCCOc1ccc(-c2nnc(-c3cc[n+](C)cc3)o2)cc1	8.3
CSc1ccc(-c2nc(CN3CCCCC3c3cccnc3)c(C)o2)cc1 (centres undefined)	5.2
CCCCNC(=O)NC12CC3CC(CC(C3)C1)C2	9.7
O=C1C2CC=CCC2C(=O)N1Cc1nnc(-c2ccc(Cl)cc2)o1 (centres undefined)	8.1
Cc1oc(S(=O)(=O)N(C)C)cc1C(=O)Nc1ccc(Cl)cc1	8.3
O=C(NCc1ccccc1)C1=C[C@H](c2ccc3c(c2)OCO3)C[C@H](OCCCCO)O1	0.3
O=C(COC(=O)CCS(=O)(=O)c1ccc(Cl)cc1)NCCc1ccccc1	17.0
CCN(CC)S(=O)(=O)c1cccc(NC(=O)COc2ncnc3sccc23)c1	-2.7
COc1cc(CNC(C)(C)CO)cc(Br)c1OCc1ccc(Cl)cc1	7.6
CC1CN(CCOc2ccc([N+](=O)[O-])cc2)CC(C)O1 (centres undefined)	10.1
C=CCN1C(=O)C(CC(=O)Nc2ccc(OC)cc2)SC1=Nc1ccc(S(N)(=O)=O)cc1 (centres undefined)	8.6
OCC1(CO)COC(c2ccccc2)=N1	10.9
CN(C)CC(C)(C)CNC(C(=O)Nc1ccc(Cl)cc1C(F)(F)F)c1ccccc1 (centres undefined)	10.8
CCCc1nnc(SCC(=O)N2CCCC2)n1Cc1ccco1	-0.6
COCCNC(=S)Nc1cccc2cnccc12	-5.7
Cc1ccccc1C(=O)NC(NC(=O)c1ccccc1C)c1cccc([N+](=O)[O-])c1	6.2
CCCN(CCC)CCCNC(=O)C1c2cc(OC)c(OC)cc2C(=O)N(C)C1c1cccnc1 (centres undefined)	15.0
Cc1c(C(=O)N2CCC(C)CC2)sc2ncnc(N(C)c3ccccc3)c12	18.7
OCC1(Cc2ccc(Cl)cc2)CCN(Cc2ccccc2F)CC1	7.3
Cc1nnc(SCC(=O)Nc2c(C)n(C)n(-c3ccccc3)c2=O)n1Cc1ccccc1	12.0
Cc1cnc(C(=O)OCC(=O)N(Cc2ccccc2)C(C)C)cn1	11.6
Cn1c(=NC(=O)COc2ccccc2)sc2cc(F)cc(F)c21	12.8
CCN1C(=O)C(CC(=O)Nc2ccc(F)cc2)N(CCCN2CCN(c3ccc(F)cc3)CC2)C1=S (centres undefined)	4.5
COc1ccc(CNC(=O)c2ccccc2C(=O)O)cc1	16.9
CCOC(=O)C1(Cc2ccccc2C(F)(F)F)CCN(Cc2ccc(COC)o2)CC1	11.6
O=C1CN(C(=O)COC(=O)/C=C/c2ccc(OC(F)F)cc2)c2ccccc2N1	12.2
O=C(NC(c1ccc(Cl)cc1)c1cc(Cl)c2cccnc2c1O)c1cccnc1 (centres undefined)	17.4
Cc1ccc(C)c(NC2=NCC(=O)N2C2CCCCC2)c1	6.8
CCn1nc(NC(=O)c2cccs2)c2cc3ccccc3nc21	12.0
Cn1c(CNC(=O)c2ccccc2F)nnc1SCCOc1ccccc1	29.7
Cc1ccc(S(=O)(=O)CCc2nc3ccccc3s2)cc1	8.0
Cc1ccccc1-c1n[nH]c(=S)n1/N=C/c1c(C)nn(-c2ccccc2)c1C	8.2
S=c1[nH]nc(-c2ccc3ncccc3c2)n1-c1ccc2c(c1)OCCO2	7.0
NS(=O)(=O)c1ccc(CCNC(=O)CSc2cccs2)cc1	-2.3
NC(=O)c1c(NC(=O)C2COc3ccccc3O2)sc2c1CCN(Cc1ccccc1)C2 (centres undefined)	7.5
O=C(/C=C/c1ccc([N+](=O)[O-])cc1)NCc1ccc2c(c1)OCO2	25.3
O=C(Cc1c[nH]c2ccccc12)NCc1ccc(Cl)cc1	13.7
Further records
SMILES	Biofilm kill mix
CCc1cccc(CC)c1-n1c(SCC(=O)c2c(N)n(C)c(=O)n(C)c2=O)nnc1-c1cccnc1	6.1
CCc1ccc2c(c1)c1nnc(NN)nc1n2CC	22.2
COCCNC(=S)N/N=C(\C)c1ccc(Cl)s1	18.9
Cc1sc2nc(CSc3nc4ccccc4s3)[nH]c(=O)c2c1C	10.3
CCC(O)CNC(=O)NC(=C(Cl)Cl)c1ccc(C)c(F)c1 (centres undefined)	8.1
CCc1ccc(NC(=O)COc2ccc(Br)cn2)cc1	7.4
CCCCNC(=O)C1(NC(=O)Nc2ccccc2)CCCCC1	10.4
CN(C)C(=O)Cn1c(SCC(=O)NCc2ccc3c(c2)OCO3)nc2ccccc21	18.7
CCCCN1C(=O)C(CC(=O)NCC)SC1=Nc1ccccc1 (centres undefined)	17.5
COc1ccc(-c2noc(-c3cccnc3)n2)cc1OC	16.7
Nc1n[nH]c(C(F)(F)F)c1-c1ccccc1	15.1
CCNC(=O)NCc1c(C)c(C)n(Cc2ccccc2)c1-n1cccc1	9.6
C[C@@H]1CC=C[C@H]2[C@H]1C(=O)N(Cc1ccccc1)[C@H]2c1ccc(C(F)(F)F)cc1	14.6
Cc1cc2sc3ccccc3c(=O)c2c(C)c1O	21.7
CCN(CC(O)CON=C1c2ccccc2-c2ccccc21)S(=O)(=O)c1ccc(Cl)cc1 (centres undefined)	-2.7
O=C1CCC([N+](=O)[O-])C(c2cccc([N+](=O)[O-])c2)N1 (centres undefined)	12.3
Cc1ncc(CO)c(/C=N/NC(=S)Nc2cccc(Cl)c2)c1O	-21.7
CCc1cc2c(=O)n(CC(C)C)cnc2s1	19.6
Cc1ccc(NC(=O)CSCC(=O)O)cc1	18.5
CCc1ccc(OCC(=O)N/N=C/c2cc([N+](=O)[O-])ccc2N2CCCCCC2)cc1	15.5
Cc1ccc2[nH]c3c(c2c1)CCNC3=O	13.3
CCCNNC(=O)C(O)(c1cccc(C)c1)c1cccc(C)c1	8.0
CC1(C)CC(NC(=S)NC2CC2)CC(C)(C)N1	5.7
COc1ccc2c(CC(=O)Nc3ccc(OC)nc3)coc2c1	23.6
CSCCC(NS(=O)(=O)c1ccc(Cl)cc1)C(=O)O (centres undefined)	11.7
COc1ccc(CCC(=O)N(c2nnc(-c3cccnc3)s2)C(C)C)cc1	32.3
CCOC(=O)C1(CCCc2ccccc2)CCN(C(=O)CCn2cncn2)CC1	11.0
Cc1ccc(NC(=S)Nc2c(C)n(C)n(-c3ccccc3)c2=O)cc1	13.7
COCc1ccc([C@@H]2C[C@H]3CN(Cc4cccnc4)C(=O)[C@]34CCCN24)o1	10.2
COc1ccc(C(=O)N[C@H](C(=O)Nc2ccc(S(=O)(=O)N3CCOCC3)cc2)C(C)C)cc1	13.2
COC(=O)c1cnc(SCc2ccc(C)cc2)n1C	1.5
Cc1cccc(C(=O)n2c(=S)nc3cc(C)ccn32)c1	16.4
CCCC(=O)n1nc(-c2ccc(C)cc2)nc1NCc1ccco1	6.4
CCn1cc([N+](=O)[O-])c(C(=O)N2N=C(c3ccc(Cl)c(Cl)c3)CC2c2ccccc2O)n1 (centres undefined)	4.5
COc1ccccc1N1CCN(CC(O)COc2cccc3ccccc23)CC1 (centres undefined)	5.8
C=CCNCCOc1ccc(C)cc1[N+](=O)[O-]	19.0
O=C(NCc1cccs1)C1CCN(S(=O)(=O)c2ccc(Cl)cc2)CC1	5.7
O=C1CC(c2ccccc2Cl)CC(O)=C1C=Nc1ccccc1 (centres undefined)	8.0
FC(F)(F)c1cccc(N/N=C/c2ccccc2)c1	17.3
COc1cc(NC(=O)COC(=O)/C=C/c2ccc(Cl)cc2Cl)cc(OC)c1	11.6
CN(C)C(CNc1ncnc2sccc12)c1cccs1 (centres undefined)	1.9
Nc1nonc1OCCOCCOCCOc1nonc1N	12.3
O=C(Oc1ccccc1/C=C\C(=O)c1cc2ccccc2o1)c1cccc(F)c1	16.8
O=C(C[n+]1cc(-c2ccccc2)n2c1CCCCC2)c1ccc(Cl)cc1	19.7
O=C(O)c1ccc(NCc2nc3ccccc3n2Cc2ccccc2)cc1	-1.5
Cc1ccc(NC(=O)c2ccccc2N(C)S(=O)(=O)c2ccccc2)c(C)c1	5.9
COc1ccc(C2=NNC(=Nc3cc(S(=O)(=O)N(C)C)ccc3C)SC2)c(OC)c1	1.6
CC1(C(=O)O)COC(c2ccc(Cl)cc2)OC1 (centres undefined)	8.7
NC(=O)Cc1nc(-c2ccc(F)cc2)cs1	8.2
COC(=O)c1ccc(CSc2nnc(NC(=O)C3CC(=O)N(c4ccc5c(c4)OCCO5)C3)s2)cc1 (centres undefined)	26.6
NNC(=O)c1sc2cc(C(F)(F)F)cnc2c1-c1cccnc1	8.8
Cc1ncc(CO)c(/C=N/NC(=O)c2cc(O)c(O)c(O)c2)c1O	23.6

Five entries picked at random from the list so far, as already listed:
SMILES	Biofilm kill mix
Cc1ncc(CO)c(/C=N/NC(=O)c2cc(O)c(O)c(O)c2)c1O	23.6
CC1(C(=O)O)COC(c2ccc(Cl)cc2)OC1 (centres undefined)	8.7
O=C(O)c1ccc(NCc2nc3ccccc3n2Cc2ccccc2)cc1	-1.5
Cc1ccc(NC(=O)c2ccccc2N(C)S(=O)(=O)c2ccccc2)c(C)c1	5.9
NNC(=O)c1sc2cc(C(F)(F)F)cnc2c1-c1cccnc1	8.8

Screens from PubChem BioAssay.
